Autofluor counter = compound fluorescence in toxin protease inhibitor counterscreen | compound autofluorescence counterscreen, microsphere flow cytometry; hits give high values | fluorescence intensity (test concentration not listed) | hit rate 3.1% among 360,000;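 active = at least 3 SD above the mean of all compounds, about 16000 in these data; inconclusive = too few beads counted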;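 also: 100 nL of 1 mM stock went into each well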
Mtb hypoxia inh = Mtb hypoxia fluorescent reporter inhibition. M. tuberculosis hypoxia-regulated fluorescent reporter, fluorescence. fluorescence inhibition, % (test concentration not listed). hit rate 0.1% among 300,000;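 active = 35 to 45% if threefold the growth effect, above 45% if 1.5-fold the growth effect; inactive = the rest, general growth blockers included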;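 also: wells of about 50 µL received 100 nL stock; 0% = vehicle wells and 100% = reference inhibitor wells; whole bacteria with a GFP reporter of the hypoxia response; strong numbers were not always called active; many hits fall short of the cut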
Sa RN4220 lethal = S. aureus RN4220 growth inhibition; OD600, 16 h; inhibition, % (no concentration beside the values); hit rate 0.33% among 330,000;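 active = z-score of -3 or lower and OD600 up to 0.18 on both plates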;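 also: plate controls were untreated cells for no effect and reference antibiotic for full effect; stock transfer was 100 nL into about 80 µL; one replicate is shown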
BJeLR viability = BJeLR cell viability loss | BJeLR (HRASV12) viability, CellTiter-Glo ATP luminescence, 48 h; reference of the scale not given here | inhibition, % (concentration not given with the values) | hit rate 0.17% among 300,000;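 active = replicate mean above 50%; inconclusive = above 50% but judged a plate artefact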;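 also: 50 nL library stock added to about 25 µL; numbers are from one replicate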
PrP 5UTR inh = inhibition of PrP 5' UTR reporter expression. cell-based PrP 5' UTR mRNA reporter, plate reader. inhibition, % (concentration not given with the values). hit rate 0.35% among 340,000;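 active = every replicate at 50% or more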;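 also: 0 = median of the neutral control wells; tested in H4 reporter cells; numbers are from one replicate; inactives centre near -14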
ugtP null kill = compounds lethal to S. aureus RN4220 ugtP deletion mutant | OD600 growth, 16 h; some inactives read as strong as hits | growth inhibition, % (concentration not given with the values) | hit rate 0.54% among 330,000 | AID 1259309;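 active = z-score under -3 and OD600 up to 0.15 on both plates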;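 also: plate controls were untreated wells for no effect and antibiotic for full effect; wells of about 80 µL received 100 nL stock; the first replicate is given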
Mtb hypoxia inh growth = recorded beside Mtb hypoxia inh, whose call it bears; growth inhibition, %; measured here: M. tuberculosis growth (absorbance);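 0% = vehicle and 100% = reference antibiotic; read after six days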
An asterisk follows results filed as active; ? = inconclusive; nt = no result given.

SMILES | Autofluor counter | Mtb hypoxia inh | Mtb hypoxia inh growth | Sa RN4220 lethal | BJeLR viability | PrP 5UTR inh | ugtP null kill
NCCCCCc1cn(C(CO)C(=O)NCCCCCCCCCCC(=O)N2CCNCC2)nn1 (configuration not stated) | nt | 20 | 17 | 4.5 | nt | nt | 0
COCCn1c(C)cc(C(=O)CSc2nnc(-c3cccnc3)n2-c2ccccc2F)c1C | 5839 | 9 | 11 | 1.9 | -13 | -7 | -2
COc1ccc(-c2sc(Nc3ccccc3)n[n+]2-c2ccc(F)cc2)c(OC)c1OC | 3585 | -4 | 0 | -3.1 | 0 | -16 | -17
Cc1csc(Nc2ccccc2)n1 | 3286 | 0 | 0 | 5.1 | 1 | -8 | -5
Cc1ccsc1C(=O)OCC(=O)NCc1ccccc1 | 2877 | 6 | 8 | 1.0 | nt | -18 | 0
COc1cccc(OC)c1C(=O)NC(=S)N1CCOCC1 | 3344 | 5 | 11 | 1.5 | 0 | -12 | 2
CCOc1cc(Br)c(Br)c(C=Nc2ccc(NC(C)=O)cc2)c1O | 2202 | 11 | 7 | 7.4 | 0 | -21 | -3
CC(=O)Nc1ccc(OCC(=O)NCc2ccc(C)cc2)cc1 | 4330 | 6 | 5 | 9.8 | 7 | -18 | 1
O=C(NC1CC1)c1cc(OCC(F)(F)F)ccc1OCC(F)(F)F | 3176 | -13 | 13 | -0.6 | -12 | -18 | -8
O=C(Nc1sc2c(c1C(=O)O)CCCCC2)c1cccs1 | 4271 | 3 | 9 | 38 | 4 | -9 | 26
COc1ccc(NC(=O)CSc2nnc3ccc(-c4ccncc4)nn23)cc1 | 5044 | -1 | 9 | -1.9 | -7 | -13 | 6
CCC(C)Cc1cn(C(CCCN=C(N)N)C(=O)NCCCCCCCCCCC(=O)N2CCNCC2)nn1 (configuration not stated) | nt | 12 | 14 | -1.1 | nt | nt | -17
COc1cc(CNCCO)cc(Cl)c1OCc1ccc(Cl)cc1Cl | 4616 | 20 | 17 | -4.1 | 4 | -6 | -28
COc1ccc(NC(=O)CN(C)C2CCS(=O)(=O)C2)cc1 (configuration not stated) | ? | -7 | 2 | 0.9 | nt | 0 | -2
COc1cc(NC(c2ccccc2)c2ccccc2)cc(OC)c1OC | 3271 | 4 | 0 | 3.8 | 9 | -2 | 18
Cc1ccc(CNC(=O)c2cnc3ccccc3n2)cc1 | 6667 | nt | nt | 0.9 | -7 | -17 | 3
Cc1ccc(S(=O)(=O)N2C/C=C\CN(S(=O)(=O)c3ccccc3Br)CC2)cc1 | 3942 | 5 | 5 | 4.9 | nt | -22 | 2
CCN(Cc1nc(-c2ccccc2)no1)C(=O)c1ccoc1C | 4100 | 13 | 5 | 3.1 | -8 | -22 | 9
CCC1(c2ccccc2)NC(=O)N(CC(=O)Nc2ccc(Cl)c(S(=O)(=O)N3CCCCC3)c2)C1=O (configuration not stated) | 5479 | -2 | -3 | -8.0 | 6 | -10 | -30
O=C(c1cc(=O)c2ccccc2o1)N(Cc1ccccc1)C1CCS(=O)(=O)C1 (configuration not stated) | 5931 | 7 | 3 | 3.3 | 0 | -7 | 4
CCc1noc(C)c1C(=O)N1CCN(S(=O)(=O)c2ccc(C)cc2)CC1 | nt | -7 | 8 | 0.8 | 4 | 2 | 0
CN1C=CC2=C(C#N)C(N)C(C#N)(C#N)[C@H](c3ccccc3)[C@H]2C1 (some centres not stated) | 16327* | 1 | -1 | 6.1 | 2 | -9 | 4
COc1ccc(S(=O)(=O)N2CCN(CC(=O)N3CCc4ccccc4C3)CC2)cc1OC | 3649 | 3 | 2 | 5.3 | nt | -12 | 5
C=Cc1ccc(N=Cc2c(O)ccc3ccccc23)cc1 | 5148 | 11 | 11 | -0.7 | -1 | -15 | 0
COc1ccc(OC)c(C=NOC(=O)Nc2ccc(Cl)cc2)c1 | nt | 4 | -2 | -1.6 | nt | nt | 25
OCCC1CN(Cc2cccc(F)c2F)CCN1CCc1ccccc1 (configuration not stated) | 3851 | 3 | 5 | 5.1 | 10 | -17 | 7
CC[C@@]1(C(=O)OC)N[C@H](CN(C)C(=O)COC)[C@@H]2C(=O)N(Cc3ccccc3)C(=O)[C@@H]21 | 3856 | 2 | -3 | 0.2 | nt | -17 | 5
COc1ccc(N2CS(=O)(=O)/C(=C/N(C)C)C2=O)cc1 | 20727* | 5 | 9 | 2.5 | -2 | -11 | 4
COc1cccc(CC(=NO)c2cccc(OC)c2)c1 | 3582 | 15 | 11 | 4.8 | nt | -13 | 8
CC1=C(C(=O)OCC2CCCO2)C(c2cccc(O)c2)NC(=O)N1 (configuration not stated) | 9819 | -1 | 11 | 0.8 | 2 | -5 | 2
O=C(COc1c(Br)cc(Br)c2cccnc12)N1CCc2ccccc2C1 | 9714 | 9 | 12 | 11 | 1 | nt | -14
Cc1ccc(-c2nnc(SCC(=O)NN=Cc3ccc(C(=O)O)cc3)n2C2CCCCC2)cc1 | nt | -9 | 11 | -0.6 | nt | nt | -4
COCCCNC(=O)/C(C#N)=C/c1ccc(F)cc1 | 4234 | -4 | 4 | 3.1 | 7 | 1 | -3
CCCCC1=CC2=C(c3ccco3)C(=O)C(C)(OC(=O)c3ccc(OC)cc3)C(=O)C2=CN1CCN1CCOCC1 (configuration not stated) | 2752 | -3 | -14 | 7.5 | -4 | -22 | 6
CN(Cc1ccccc1)C(=O)c1ccc(NC(=O)c2ccccc2)cc1 | 5812 | 10 | 2 | -1.6 | 3 | -1 | -2
O=c1cc(O)c2ccccc2[nH]1 | 2074 | -3 | 0 | 3.3 | -6 | -17 | 0
Cc1cc(-c2ccccc2)nc(N/N=C/c2ccc(O)cc2O)n1 | 3383 | nt | nt | nt | -7 | -1 | nt
COc1cccc(CN2CC(C(=O)NCc3cccc(Cl)c3)CCC2=O)c1 (configuration not stated) | 4856 | 12 | -4 | 2.4 | 1 | -5 | -1
CCn1c(-c2ccccc2Cl)nn(CC(=O)Nc2ccccc2OC)c1=S | 3454 | 5 | 6 | 7.5 | -7 | -18 | 7
COc1ccc(O)c(CN2CCN(CCCc3ccccc3)C(CCO)C2)c1 (configuration not stated) | 3911 | 8 | 1 | 3.4 | -9 | -15 | 1
O=C(CCCOc1ccccc1)NNC(=O)c1ccncc1 | 4242 | nt | nt | 0.6 | nt | -9 | -7
O=C(CN1C(=O)c2ccccc2S1(=O)=O)c1ccccc1F | 5783 | -2 | 4 | 0.9 | 15 | 28 | 4
COC(=O)COc1cccc(NC(=O)c2cccs2)c1 | 4015 | nt | nt | 2.9 | 2 | -7 | 5
Cc1cc(Oc2ccc(=O)n(C)n2)nc(=S)[nH]1 | nt | 16 | 9 | 1.5 | -4 | nt | -3
C(=Nc1c(-c2ccccc2)nc2n1CCS2)c1ccccc1 | nt | 11 | 1 | -0.5 | nt | nt | 4

3 structures from above, ordered by count of non-hydrogen atoms, descending.
SMILES | Autofluor counter | Mtb hypoxia inh | Mtb hypoxia inh growth | Sa RN4220 lethal | BJeLR viability | PrP 5UTR inh | ugtP null kill
CN(Cc1ccccc1)C(=O)c1ccc(NC(=O)c2ccccc2)cc1 | 5812 | 10 | 2 | -1.6 | 3 | -1 | -2
O=C(CCCOc1ccccc1)NNC(=O)c1ccncc1 | 4242 | nt | nt | 0.6 | nt | -9 | -7
O=c1cc(O)c2ccccc2[nH]1 | 2074 | -3 | 0 | 3.3 | -6 | -17 | 0

The results go on:
SMILES | Autofluor counter | Mtb hypoxia inh | Mtb hypoxia inh growth | Sa RN4220 lethal | BJeLR viability | PrP 5UTR inh | ugtP null kill
Cc1cc(N2CCN(S(=O)(=O)c3ccccc3)CC2)c2ccccc2n1 | 12138 | 13 | -1 | 6.7 | 11 | -17 | 21
CCN(CC)CCn1c(=S)[nH]c2ccc(Br)cc2c1=O | 3823 | 0 | 10 | 7.9 | 2 | -19 | 2
COC(=O)CCC(=O)NNC(=O)c1ccc(Br)cc1 | 4719 | nt | nt | 1.1 | 2 | -9 | 4
O=c1cc(CSc2n[nH]c(=O)n2C2CC2)c2ccc(O)cc2o1 | nt | 12 | 3 | 1.9 | -2 | nt | 1
CCOC(=O)C1=C(O)C(=O)N(c2ccc(S(N)(=O)=O)cc2)C1c1ccc([N+](=O)[O-])cc1 (configuration not stated) | 4573 | 0 | -1 | 0.6 | 0 | -39 | 0
CCCN(CC(=O)Nc1ccccc1OC)C(=O)c1ccncc1 | 3153 | -1 | -7 | 1.7 | -4 | -18 | 5
COc1cc(/C=C2\N=C(c3c(-c4ccccc4)noc3C)OC2=O)ccc1OC(C)=O | 3540 | 11 | 5 | 11 | -1 | -16 | 3
CC1(C)CN(c2ccccc2)N(Cc2ccc(F)cc2)C1=O | 18014* | 0 | 5 | 1.5 | -13 | -16 | 9
CCOc1ccccc1NC(=O)Nc1ccc(CC#N)cc1 | 6101 | -6 | -1 | -1.5 | -6 | -18 | -2
CCC(C)(C)n1nnnc1C(c1ccc(O)c(OC)c1)N1CCc2ccccc2C1 (configuration not stated) | 10565 | 5 | 6 | 4.4 | -9 | nt | 3
CCC(=O)N/C(=N/c1nc(C)cc(C)n1)Nc1cccc(OC)c1 | 7942 | 0 | 5 | 2.6 | -18 | -20 | -6
COc1cc(OC)c(OC)cc1CNCCc1ccc(OC)c(OC)c1 | 10874 | 5 | 11 | 1.4 | 0 | -22 | 2
O=C(COc1ccccc1Cc1ccccc1)Nc1cccc(S(=O)(=O)N2CCOCC2)c1 | 6473 | 10 | 10 | -4.7 | nt | -14 | -12
Cc1ccc(N2Cc3ccccc3C2=N)cc1[N+](=O)[O-] | 4105 | 12 | 6 | 5.4 | -1 | -10 | 7
CCC1=C(c2ccc(C)cc2)S(=O)(=O)N=C1N1CCC(C(=O)NCCCN2CCCCC2C)CC1 (configuration not stated) | 11381 | 8 | 9 | 2.1 | 2 | -37 | -1

Complete entries as entered above. Order of screens: Autofluor counter | Mtb hypoxia inh | Mtb hypoxia inh growth | Sa RN4220 lethal | BJeLR viability | PrP 5UTR inh | ugtP null kill
Record of `CCC(C)(C)n1nnnc1C(c1ccc(O)c(OC)c1)N1CCc2ccccc2C1` (configuration not stated) → 10565 | 5 | 6 | 4.4 | -9 | nt | 3
Record of `CCOC(=O)C1=C(O)C(=O)N(c2ccc(S(N)(=O)=O)cc2)C1c1ccc([N+](=O)[O-])cc1` (configuration not stated) → 4573 | 0 | -1 | 0.6 | 0 | -39 | 0
Record of `CC1(C)CN(c2ccccc2)N(Cc2ccc(F)cc2)C1=O` → 18014* | 0 | 5 | 1.5 | -13 | -16 | 9
Record of `O=C(COc1ccccc1Cc1ccccc1)Nc1cccc(S(=O)(=O)N2CCOCC2)c1` → 6473 | 10 | 10 | -4.7 | nt | -14 | -12

(cont.)
SMILES | Autofluor counter | Mtb hypoxia inh | Mtb hypoxia inh growth | Sa RN4220 lethal | BJeLR viability | PrP 5UTR inh | ugtP null kill
CCCn1c(=O)c(C(=O)NCCc2ccc(OC)c(OC)c2)c(O)c2ccccc21 | 2940 | 8 | -1 | 6.2 | 10 | -23 | -3
O=[N+]([O-])c1cc(S(=O)(=O)N2CCOCC2)ccc1OCc1ccccc1C(F)(F)F | 5588 | -1 | 8 | -2.1 | nt | -29 | 7
CCC1CCCCN1C(=O)Cn1c(=O)n(CCCC(=O)NCc2ccco2)c(=O)c2sccc21 (configuration not stated) | 4176 | 6 | -3 | 1.4 | 4 | -27 | 16
O=c1oc2ccccc2cc1N1CCOCC1 | 2415 | -13 | -21 | 1.3 | -4 | -8 | 2
CCC(C(=O)NCc1ccc(F)cc1)N(Cc1cccs1)C(=O)c1snc(C(N)=O)c1N (configuration not stated) | 5720 | 19 | 9 | 2.2 | -6 | -13 | 5
CCCn1c(SCC(=O)NCc2ccccc2Cl)n[nH]c1=O | 4755 | 1 | -5 | 2.1 | 4 | -48 | 1

Compound activity as filed in PubChem BioAssay.
